High-throughput results: PubChem BioAssay, National Center for Advancing Translational Sciences (NCATS)
YjeE inh = inhibitors of E. coli YjeE (TsaE); P0AF67; purified YjeE, fluorescence polarisation of a bound ADP probe; Potency, µM; 71,000 tested, 0.05% active; active = well fitted falling curve; inconclusive = weaker or top-dose-only fall, or a rising curve; inactive = flat or poorly fitted curve;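 further: top concentration of the series not given in the record; excess ADP was the control for the full effect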
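Purified YjeE (10 uM) with BODIPY Texas Red-labeled ADP probe (2 uM); compounds pin-transferred, 15 min at room temperature. Binding inhibition read as decreased fluorescence polarization; ADP titration as control.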
PK Bst = alters activity of Bacillus stearothermophilus pyruvate kinase. partly purified Bacillus stearothermophilus pyruvate kinase, luminescence ATP production; ribose 5-phosphate activator present at AC10. Potency, µM. 51,000 tested, 1.2% active; in the data active means potency below about 11 µM; inconclusive means mostly about 12 µM to 25 µM; inactive means weaker than that;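 the screen sought inhibitors and activators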;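 further: potency means the concentration at half of the fitted maximal effect; scaled between full activation by ribose 5 phosphate and full inhibition by luteolin; about four in five hits inhibit and the cells do not say which; series up to 57 µM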
* hit, by the source's call; i = inactive; ? = inconclusive; / = no result given. Only part of the results is shown; rates above refer to the full screens.

Molecule	YjeE inh	PK Bst
CCOc1ccc(C2C(C#N)=C(N)Oc3n[nH]c(C)c32)cc1OC(=O)C1CC1 (centres undefined)	i	>57
O=c1[nH]c2ccc(Cl)cc2c(=O)n1Cc1ccco1	i	>57
CCOc1cc(S(=O)(=O)N2CCN(CC)CC2)ccc1Cl	i	>57
C=CCOn1c(=O)c(-c2ccc(OC)cc2)[n+]([O-])c2ccccc21	/	>26
CC(C)C(NC(=O)c1ccccc1)C(=O)NC1=NCCS1 (centres undefined)	i	>57
CCOC(=O)C1=C(C)N(C)C(=O)NC1c1cccc(O)c1 (centres undefined)	i	/
COc1cc(C)c(C(C)C)cc1S(=O)(=O)n1cnc(C)c1	i	/
CCOC(=O)C1CCN(c2ncnc3c2oc2ccc(Br)cc23)CC1	i	11*
CCn1c2c(c3cc(C(=O)O)ccc31)CCCC2=O	i	>57
COCCNc1nc2c(c(=O)n(C)c(=O)n2C)n1Cc1cccc(C)c1	i	>57
CN(C(=O)c1cccnc1)c1nc(-c2ccccc2)cs1	i	>57
Cc1ccc(CSc2nnc(Cn3c(=O)sc4ccccc43)n2C)cc1	i	/
CCN(CC)c1ccc(NC(=O)C2CC3CCC2C3)cc1 (centres undefined)	i	/
CC(=O)c1sc2nc(SCC(=O)N3CCCCC3)[nH]c(=O)c2c1C	i	>57
O=C(NCC(=O)N(c1ccccc1)C(C(=O)NCC1CCCO1)c1ccccc1)c1ccco1 (centres undefined)	i	>57
O=C1CC(c2ccco2)Cc2nc(N3CCc4ccccc4C3)ncc21 (centres undefined)	i	>57
Cc1nn(Cc2ccccc2)c(C)c1NC(=O)c1cc(-c2ccco2)on1	i	>57
Cn1c(C(=O)NCCc2c[nH]c3ccccc23)cc2sccc21	i	/
O=C(c1cnc2n(c1=O)CCS2)N(C1CCCCC1)C1CCCCC1	i	/
COC(=O)c1ccccc1NC(=O)C1CC=CCC1C(=O)O (centres undefined)	i	>57
Clc1cccc(-c2nnc3sc(-c4ccccc4)nn23)c1	i	>57
Cc1csc(SCc2ccccc2C(=O)O)n1	i	>57
O=C(NCC(=O)N(c1cccc(F)c1)C(C(=O)NCC1CCCO1)c1ccccc1)c1ccco1 (centres undefined)	i	>57
C=C(CC1([C@@H](NP(=O)(c2ccccc2)c2ccccc2)[C@H]2C[C@@H]2CCCC)CC1)c1ccccc1	i	/
Clc1ccc(CSc2nnc(-c3cccnc3)n2Cc2ccco2)c(Cl)c1	i	>57
Cn1c(Cn2c(=O)sc3ccccc32)nnc1SCC(=O)N1CCCCCC1	i	/
Cc1ccc(-c2nnn(CC(=O)N(Cc3ccccc3)C(C(=O)NC(C)(C)C)c3ccncc3)n2)o1 (centres undefined)	i	>57
Cn1c(NCCCO)nc2c(c1=O)C1(CCCCC1)Cc1ccccc1-2	i	>57
O=C(CN(C(=O)CNC(=O)c1ccco1)c1ccc(Cl)c(Cl)c1)NC1CCCCC1	i	>11
CCC(=O)c1ccc(OCc2ccc(C(=O)OC)o2)c(OC)c1	i	/
CCOc1ccc(C2=Nn3cnnc3SC2)cc1	i	?
C=CCc1ccc(OCC(O)COCC)c(OC)c1 (centres undefined)	i	/
CCOC(=O)c1cccc(NC(=O)c2cc3sccc3n2C)c1	i	/
CCN1CCN(CC(=O)NC2CCCC2)C(=O)C1=O	i	/
CCOc1ccccc1OCCCC(=O)N1CCN(S(=O)(=O)c2cccc(F)c2)CC1	i	>57
CCOC(=O)c1[nH]c2ccc(OC)cc2c1NC(=O)CCN1CCCC(C)C1 (centres undefined)	/	>26
CC(C)Cc1cc(C(=O)Nc2ccc(F)cc2F)no1	i	/
O=C(CN1CCC2(CC1)OCCO2)c1ccc2cc[nH]c2c1	i	>57
Cc1ccc(C(C)C)c(OCc2nnc(SCC(=O)Nc3nccs3)n2C)c1	i	>57
Cc1cc(C(=O)N2CCc3ccccc32)c2cc(F)ccc2n1	i	>57
O=C(CSc1nc2ccc(Cl)cc2[nH]1)NCc1ccco1	i	>57
Cc1occc1-c1nnc(SCC(=O)c2ccccc2)n1CC1CCCO1 (centres undefined)	i	>57
CN(Cc1ccco1)c1ncncc1-c1ccc2c(c1)OCO2	i	/
COc1ccc(-c2noc(C3CCCN(S(=O)(=O)c4ccc(C)c(Cl)c4)C3)n2)cc1OC (centres undefined)	i	?
COCCNC(=O)c1ccc(N2CCCCC2)c(NS(=O)(=O)c2ccc(C)cc2)c1	i	>57
COc1ccc(S(=O)(=O)N2CCCC2C(=O)Nn2cnnc2)cc1 (centres undefined)	i	>57
COC(=O)Cc1c(C)nc2nc(NCc3c(F)cccc3Cl)[nH]n2c1=O	i	>57
O=C(NC1CCN(Cc2ccccc2)CC1)C1CCN(S(=O)(=O)c2cccc3nsnc23)CC1	i	>57
O=C(NC1CCCC1)C(c1ccc(O)cc1)N(CC1CCCO1)C(=O)C1COc2ccccc2O1 (centres undefined)	i	>57
CCC(=O)N(CC)c1nc(-c2ccc(OC)cc2)cs1	i	i
COc1ccc(/C(O)=C2/C(=O)C(=O)N(CCN(C)C)C2c2ccccc2)cc1Cl (centres undefined)	i	/
Cc1ccc2oc(=O)n(CCOc3ccccc3Cl)c2c1	i	/
CCN1CCc2c(C#N)c(N3CCOCC3)nc(NCCO)c2C1	/	>26
CN(C)C(=O)c1ccc(-c2ccc3ncnc(NCc4cccs4)c3c2)cc1	?	/
COc1ccc(NC(=O)CSc2nccn2-c2cccc(OC)c2)cc1	i	>57
O=C(COC(=O)c1ccc(=O)n(Cc2ccccc2)n1)Nc1ccc2c(c1)OCCO2	i	>57
COC(=O)c1ccccc1NC(=O)CN1CCC(C(=O)c2ccc3c(c2)OCCO3)CC1	i	>57
C=CC(=C)CC(NC)c1ccccc1 (centres undefined)	i	>57
CCOC(=O)c1nc(S(C)(=O)=O)ncc1N1CCOCC1	i	>57
C#CCCCC(=O)Nc1ccccc1	i	/

(listing goes on)
Molecule	YjeE inh	PK Bst
CCc1ccccc1N(C)C(=O)CCc1nc(-c2ccc(C)cc2)no1	i	>57
CCCc1nc2ccccc2c(=O)n1/N=C/c1ccc(O)c(O)c1	i	>57
O=C(CCc1ccc(S(=O)(=O)N2CCOCC2)cc1)NCCCN1CCCC1=O	i	>57
CCOc1ccc(NC(=O)C2CCC(N3C(=O)C4CC=CCC4C3=O)CC2)cc1 (centres undefined)	i	>57
Cc1cc2c(c(Sc3ccccc3)n1)C(=O)OC2	i	>57
O=C(NCc1ccco1)c1c[nH]c2ccc(S(=O)(=O)N3CCOCC3)cc2c1=O	i	>57
COc1ccc(OCC(O)Cn2c(Nc3ccccc3)nc3c2c(=O)n(C)c(=O)n3C)cc1 (centres undefined)	i	>57
COc1cc(C(=O)Nc2nc(OC)c(-c3ccccc3)c(OC)n2)cc(OC)c1OC	i	>57
O=C(NCc1ccco1)C1CCCCN1S(=O)(=O)c1ccc(F)cc1 (centres undefined)	i	>57
Cc1ccc(C(=O)/C=C/Nc2ccccc2C(N)=O)o1	i	6.1*
COCCN(CC(=O)Nc1cccc(C)c1)S(=O)(=O)c1ccc(S(=O)(=O)N2CCCC2)cc1	i	>57
N#Cc1c(NC(=O)c2ccc(Cn3cc(Br)cn3)o2)sc2c1CCCCCC2	i	>57
O=c1[nH]c(SCc2ccccc2Cl)nc2c1cnn2-c1ccccc1	i	/
O=C1NCCN1Cc1cccc(Cl)c1	i	>57
COc1ccc(NC(=O)C(F)(OC)C(F)(F)F)c(OC)c1 (centres undefined)	i	>57
O=C(CSc1n[nH]c(-c2ccco2)n1)N1c2ccccc2Sc2ccccc21	i	>57
COc1ccccc1N1CCN(Cc2ccc(OC)c3ccccc23)CC1	i	/
COc1cc(S(=O)(=O)N2CCN(C(=O)c3ccccc3F)CC2)c(OC)cc1NC(C)=O	i	>57
O=S(=O)(c1ccc(Cl)cc1)c1ccccn1	i	>57
C=CCOC(=O)C1=C(C)NC(C)=C(C(=O)OCC=C)C1c1ccc(O)cc1	i	/
CCOC(=O)c1ncn2c1CN(C)C(=O)c1cc(F)ccc1-2	i	/
Cc1cc(C)c(S(=O)(=O)N2CCN(c3nc4c(c(=O)n(C)c(=O)n4C)n3C)CC2)c(C)c1	i	?
Cc1noc(C)c1S(=O)(=O)N(C)CC(=O)NCc1ccccc1	i	>57
CCN(Cc1nc2ccccc2c(=O)[nH]1)Cc1cc(=O)oc2cc(C)c(C)cc12	i	>57
N/C(COc1ccc(C(=O)O)cc1)=N\O	i	>57
O=C(Oc1ccc(-c2ccccc2)cc1)N1CCCCC1	i	>57
CCN1CCN(C(c2cccs2)C(C)NC(=O)c2cccc(OC)c2OC)CC1 (centres undefined)	i	>57
Cc1nc2ccccn2c1/C(O)=C1\C(=O)C(=O)N(CCN2CCOCC2)C1c1cccs1 (centres undefined)	i	>57
O=C(CCN1CCCC1Cc1ccccc1)c1ccc2c(c1)OCCO2 (centres undefined)	/	>26
CN1CCN(c2ncc3nc(-c4cccc(C#N)c4)c(=O)n(C)c3n2)CC1	i	/

Compound profiles, from the list above:
COCCN(CC(=O)Nc1cccc(C)c1)S(=O)(=O)c1ccc(S(=O)(=O)N2CCCC2)cc1 as listed: YjeE inh = i; PK Bst = >57
O=C(CSc1n[nH]c(-c2ccco2)n1)N1c2ccccc2Sc2ccccc21 as listed: YjeE inh = i; PK Bst = >57

Additional records
Molecule	YjeE inh	PK Bst
O=C(c1cnn2c(C(F)F)cc(-c3ccccc3)nc12)N1CCN2CCCC2C1 (centres undefined)	i	>57
Cc1cc(C)c(C#N)c(N2CCCC(C(N)=O)C2)n1 (centres undefined)	i	>57
O=C(CNS(=O)(=O)c1ccc(Br)s1)N1CCN(c2ncccn2)CC1	i	>57
Cc1cc(C)c(NC(=O)CN2C(=O)NC3(CCCCC3)C2=O)c(Cl)c1	i	>57
CCOC(=O)c1c(NCc2ccc3c(c2)OCO3)c2ccccc2[nH]c1=O	i	>57
O=C(Nc1ccccc1)N1CCC2(CCNCC2)CC1	i	/
Cc1oc(-c2ccccc2F)nc1CS(=O)(=O)CC(=O)N1CCCCCC1	i	/
CCn1c(SCC(=O)Nc2ccc3c(c2)OCCO3)nnc1-c1ccccn1	i	/
CSc1nnc(-c2ccccc2)c(=O)[nH]1	i	>57
C=CCn1c(SCC(=O)NCc2ccc3c(c2)OCO3)nnc1C1CCCCC1	i	>57
Cc1ccc(SCN2CCCCC2)cc1 (tested in a mixture with another compound)	i	/
CC(NCCc1ccc(O)cc1)C(O)c1ccc(O)cc1 (centres undefined)	/	>26
Cc1nccn1-c1ncnc2sc3c(c12)CCCC3	i	/
Cc1ccc2cc(C)c(N3CCN(c4ccccn4)CC3)nc2c1	i	>11
CC(C)CCNC(=O)CN(C(=O)Cn1nnc(-c2ccc(F)cc2)n1)C1CCCC1	i	>57
Cc1c(Cl)ccc2c1NC(=O)[C@]21[C@@H]2C(=O)N(Cc3ccccc3)C(=O)[C@@H]2[C@@H]2CCCN21	i	>57
Cc1cc(C)n(S(=O)(=O)c2cc(Cl)ccc2Cl)n1	i	>57
CC(=O)c1c(C)nn(C(=O)c2cccs2)c1C	i	/
CCc1c(C)c(C#N)c2nc3ccccc3n2c1Nc1c(C)n(C)n(-c2ccccc2)c1=O	i	>57
CC(C)CN(C(=O)COC(=O)CCc1c[nH]c2ccccc12)C1CCS(=O)(=O)C1 (centres undefined)	i	>57
CC(C)N1CC=C2C(C#N)=C(N)C(C#N)(C#N)C(c3ccccc3)C2C1 (centres undefined)	/	>11
COCCn1cc(C(=O)N2CCCC(C)C2)c2c3ccccc3n(C)c2c1=O (centres undefined)	i	>57
COc1cc(C(=S)N(C)C)ccc1O	i	>57
Cc1cc(C)c2cc(C(c3nnnn3C3CCCC3)N3CCOCC3)c(=O)[nH]c2c1 (centres undefined)	i	>57
O=c1c2ccccc2ncn1Cc1nc2ccccc2s1	i	i
COc1ccc2[nH]cc(CCNc3nc(-c4ccoc4)nc4ccccc34)c2c1	i	/
O=C(NCCO)c1c(O)c2cccc3c2n(c1=O)CC3	i	>57
CC(C)(O)C#CC#CCN1CCOCC1	i	>57
O=C(c1ccc2c(c1)OCO2)N1CCc2ccccc2C1	i	>57
COCCCn1c(SCC(=O)N2CCCC(C)C2)nnc1-c1ccco1 (centres undefined)	i	>57
O=C(Cn1nc(Cc2cccnc2)c2ccccc2c1=O)NCCCN1CCCC1=O	i	/
O=C(O)c1ccc(Cn2cc(Cl)cn2)cc1	i	>57
Cn1c(=O)c(=O)n(C)c2cc(S(=O)(=O)N3CCC(N4CCCCC4)CC3)ccc21	i	>57

Part of the list above in a different format:
> O=C(CNS(=O)(=O)c1ccc(Br)s1)N1CCN(c2ncccn2)CC1
  YjeE inh: i | PK Bst: >57
> Cc1cc(C)c(NC(=O)CN2C(=O)NC3(CCCCC3)C2=O)c(Cl)c1
  YjeE inh: i | PK Bst: >57
> CCOC(=O)c1c(NCc2ccc3c(c2)OCO3)c2ccccc2[nH]c1=O
  YjeE inh: i | PK Bst: >57
